Source: PubChem (several laboratories)
Ecoli rRNA inh: selective bacterial rRNA inhibition in E. coli | E. coli WT GFP vs humanized-ribosome RFP mutants, fluorescence, 24 h; active compounds read low; DMSO median 0, no signal -100 | GFP signal change (wild-type ribosome), % (test concentration not listed) | hit rate 1.6% among 350,000;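 active = significant combined selectivity score with lowered wild-type GFP, culture density cut under 30%, mutant RFP and density less affected; inactive = any of these conditions unmet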; also: one replicate is shown; some compounds called inactive have numbers as strong as hits
E coli growth: inhibitors of Escherichia coli growth | OD600, 23 h; active compounds read low | OD600 absorbance (concentration not given with the values) | hit rate 0.21% among 330,000 | AID 1053175;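 active = OD600 absorbance below the run mean of sample wells minus 3.6 SD, in any replicate, cut at about 0.56 in these data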;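 also: stock transfer was 300 nL into about 60 µL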
HNF4A DNA FP: change in binding of human HNF4 alpha to DNA | HNF4a-FITC DNA binding, fluorescence polarization, 1 h | P41235 | activity change, % at 10 µM | hit rate 0.3% among 360,000; in the data active = activity change above about 30%, passing the limit was not always enough;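 also: controls were the assay level and a saturating level of protein; the project sought stronger binding though the title names inhibitors; some compounds called inactive have numbers as strong as hits; positive values seem to mean higher polarization but the record does not say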
Vif TR-FRET: HIV-1 Vif–A3G interaction blockers – biochemical, TR-FRET, GST-Vif 1-94, biotin-A3G peptide, dose response retest, primary screen (AID 1117319); TR-FRET GST-Vif / biotin-A3G peptide binding; higher % means a stronger effect; test concentration not given here; strong numbers were not always called active; hit rate 0.57% among 260,000; inhibition, %; hits with a dose series show IC50 in µM;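 active = above the screen mean plus three standard deviations and confirmed in dose response; inconclusive = results disagree or hit not tested in dose response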;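 also: Vif residues 1-94 fused to GST binding biotinylated APOBEC3G peptide 110-148; 0% = full assay without inhibitor and 100% = GST in place of GST-Vif; retest series ran down from 100 µM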
ALR inh: inhibitors of human sulfhydryl oxidase ALR; P55789; purified ALR, DTT oxidation, H2O2 HRP-luminol luminescence; inhibition, % (test concentration not listed); hit rate 3.8% among 290,000; AID 485317;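 active = mean and each replicate at 75% or more; inconclusive = only one of the two met; inactive = neither met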;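 also: stock transfer was 7.5 nL into about 7.5 µL; 0% = neutral wells and 100% = wells with inactivated enzyme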
Target sequence (P55789 whole entry, looked up): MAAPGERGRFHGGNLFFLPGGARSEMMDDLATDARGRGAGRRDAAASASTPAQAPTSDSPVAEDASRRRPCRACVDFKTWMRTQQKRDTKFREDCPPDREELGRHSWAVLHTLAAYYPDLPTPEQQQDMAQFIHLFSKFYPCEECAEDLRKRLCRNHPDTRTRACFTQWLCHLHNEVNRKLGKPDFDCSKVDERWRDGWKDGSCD
AF4-AF9 inh: inhibitors of human MLL-AF4/AF9 interaction. hit rate 0.47% among 350,000. AlphaScreen, biotin-AF4 peptide binding to FLAG-AF9. inhibition, % at 10 µM;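 active = every replicate reaching a set inhibition limit, whatever the replicate mean, cut at about 25% in these data; inconclusive = mean inhibition reaches that limit but some replicates miss it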;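 also: 0% = plate neutral control median and 100% = total signal loss; the record names both 10 and 1 µM as test concentration; the first replicate is given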
Target sequence (P42568 whole entry, looked up): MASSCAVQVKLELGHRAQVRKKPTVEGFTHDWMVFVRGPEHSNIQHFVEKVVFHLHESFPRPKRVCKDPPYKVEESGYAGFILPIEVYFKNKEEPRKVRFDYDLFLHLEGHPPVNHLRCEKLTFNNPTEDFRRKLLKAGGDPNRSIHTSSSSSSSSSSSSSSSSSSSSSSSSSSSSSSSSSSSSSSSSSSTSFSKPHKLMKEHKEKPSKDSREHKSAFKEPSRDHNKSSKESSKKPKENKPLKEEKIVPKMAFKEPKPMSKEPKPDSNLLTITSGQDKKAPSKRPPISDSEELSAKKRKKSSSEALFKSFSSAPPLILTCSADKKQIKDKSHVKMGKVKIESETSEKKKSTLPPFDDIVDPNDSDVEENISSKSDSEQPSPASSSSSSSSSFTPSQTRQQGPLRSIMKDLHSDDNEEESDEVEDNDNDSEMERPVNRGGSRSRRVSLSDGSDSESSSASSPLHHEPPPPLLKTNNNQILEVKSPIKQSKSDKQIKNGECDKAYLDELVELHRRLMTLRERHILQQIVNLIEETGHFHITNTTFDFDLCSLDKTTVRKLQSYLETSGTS
FGF22 binding: shifts melting point of recombinant human FGF22. Q9HCT0. recombinant FGF22 thermal shift, SYPRO orange fluorescence; percent of sucrose octasulfate shift, DMSO zero. calls only at 9.99 µM. hit rate 1.5% among 340,000. AID 651658;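 active = melting point raised past a set limit in the mean and every replicate; inconclusive = no clear call; three in four hits are not shown here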
Target sequence (Q9HCT0 whole entry, looked up): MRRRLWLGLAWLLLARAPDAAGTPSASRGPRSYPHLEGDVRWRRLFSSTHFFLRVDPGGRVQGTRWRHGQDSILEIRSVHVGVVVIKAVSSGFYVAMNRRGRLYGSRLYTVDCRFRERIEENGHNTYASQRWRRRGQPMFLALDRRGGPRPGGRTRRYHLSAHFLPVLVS
Ecoli rRNA inh OD600: further read-out of Ecoli rRNA inh, marked with its call; OD600 change, %; measured here: OD600 growth;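 optical density of the mix in the first replicate; 0 = DMSO median and -100 = no signal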
Ecoli rRNA inh RFP: also measured in Ecoli rRNA inh; calls as there; RFP signal change, %; measured here: RFP humanized mutant strains;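 first replicate; 0 = DMSO median and -100 = no signal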
The depositor's hits bear a star; i = inactive; ? = inconclusive; · = no result given; + = active, no number. The list is partial. The share of hits here may be higher or lower than overall.

SMILES	Ecoli rRNA inh	Ecoli rRNA inh OD600	Ecoli rRNA inh RFP	E coli growth	HNF4A DNA FP	Vif TR-FRET	ALR inh	AF4-AF9 inh	FGF22 binding
COc1ccc(C(=O)NNC2=Nc3cccc4cccc2c34)cc1	24.6	16.2	-3.6	0.719	-2.8	-5.2%	-34.7	-2.1	i
O=C(NCCCN1CCOCC1)c1cc(-c2ccc(Cl)s2)nc2ccccc12	5.6	21.2	1.5	0.66	-0.1	-16.4%	-10.8	-1.6	i
Cc1cc(N)ccc1N=Nc1c(C)n(C)n(-c2ccccc2)c1=O	·	·	·	0.645	-5.1	·	99.4*	·	·
CO[C@H](CN(C)Cc1nccs1)[C@@H](C)CN([C@H](C)CO)S(=O)(=O)c1ccc(F)cc1	-1.8	1.9	4.8	·	·	·	·	0.4	i
CCOC(=O)c1cnc2ccc(OCC)cc2c1NCCCN1CCOCC1	-21.5*	-1.6*	-3.2*	0.681	3.9	·	·	1.2	i
O=C(O)/C=C\C(=O)N1CCc2ccccc21	·	·	·	0.725	-1.5	22.2%	3.8	-7.6	i
CC(C)NC(=O)Nc1cccc2c1O[C@@H](CN(C)Cc1ccc(C(=O)O)cc1)[C@@H](C)CN([C@@H](C)CO)C2=O	2.5	4.5	-0.8	·	·	·	·	-1.0	i
C[C@H]1CN([C@@H](C)CO)C(=O)c2cccc(NC(=O)C3CCOCC3)c2O[C@@H]1CN(C)C(=O)Nc1ccc(C(F)(F)F)cc1	-3.3	-5.1	-0.2	·	·	·	·	-1.3	i
CCOC(=O)[C@H]1[C@H]2COc3ccc(OC)cc3[C@@H]2N2C(=O)CN(Cc3ccc(Cl)cc3)C(=O)[C@@]12C	-27.2	-41.6	-6.8	·	-8.8	·	13.9	10.1	i
CCCn1c(C)cc(C(=O)CN2C(=O)c3cccc(N)c3C2=O)c1C	·	·	·	0.714	-3.6	4.1%	-3.9	·	·
CCCCCCCC(=O)OC(CN1CCCCCC1)CN1CCCC1=O (centres undefined)	0.4	4.3	1.8	0.713	-4.0	4.8%	-2.8	-6.9	i
CCCC(NC(=O)c1ccco1)c1nc2ccccc2[nH]1 (centres undefined)	·	·	·	0.658	-4.9	1.5%	-4.6	·	·
CC(C)NC(=O)N(C)C[C@@H]1Oc2ccc(NC(=O)CCC(F)(F)F)cc2CC(=O)N([C@H](C)CO)C[C@H]1C	8.1	15.6	-1.6	·	·	·	·	-3.0	i
S=C(SCc1cc(Cl)cc2c1OCOC2)N1CCSCC1	-5.5	-7.6	3.7	·	·	·	·	7.9	i
CCc1cc[n+](C2=C([O-])c3ccccc3C(=O)/C2=N\S(=O)(=O)c2cccs2)cc1	-4.7	-7.8	10.1	0.671	-1.7	·	-15.7	2.1	i

The last two records of the section above are carried over, then new ones follow.
SMILES	Ecoli rRNA inh	Ecoli rRNA inh OD600	Ecoli rRNA inh RFP	E coli growth	HNF4A DNA FP	Vif TR-FRET	ALR inh	AF4-AF9 inh	FGF22 binding
S=C(SCc1cc(Cl)cc2c1OCOC2)N1CCSCC1	-5.5	-7.6	3.7	·	·	·	·	7.9	i
CCc1cc[n+](C2=C([O-])c3ccccc3C(=O)/C2=N\S(=O)(=O)c2cccs2)cc1	-4.7	-7.8	10.1	0.671	-1.7	·	-15.7	2.1	i
COc1ccc(C2/C=C\CN(C(=O)CC(C)(C)C)CC(=O)N2Cc2ccc(F)cc2)cc1 (centres undefined)	-24.6	-25.4	-0.4	·	1.6	·	-41.8	4.3	i
NC(=O)C1(Nc2ccc(Cl)cc2)CCCC1	3.4	1.0	5.5	0.64	13.8	-5.8%	·	4.7	i
CC(C)CC#Cc1ccc2c(c1)O[C@@H](CN(C)S(C)(=O)=O)[C@H](C)CN([C@@H](C)CO)S2(=O)=O	-7.7	-16.9	3.3	·	·	·	·	1.5	i
CCC(=O)Nc1ccc2c(c1)OC[C@H](C)N(Cc1ccccc1)C[C@H](C)[C@H](OC)CN(C)C2=O	-2.0	3.8	-1.3	·	·	·	·	-6.8	i
CCOC(=O)c1c(-c2ccc(C)cc2)csc1NC(=O)c1cccc(N2C(=O)CCC2=O)c1	26.1	0.9	1.6	0.691	1.6	-4.9%	-0.6	0.8	i
Cn1c(=O)cc2c3c(c(N4CCCCC4)ccc31)C(=O)c1ccccc1-2	0.7	-7.5	54.1	0.65	-84.4	-4.8%	17.8	54.3*	i
COC(=O)c1nnn(-c2nc(N3CCOCC3)nc(N3CCOCC3)n2)c1C	5.2	0.2	5.2	0.699	1.5	-7.7%	-5.5	-1.1	i
Cc1cccc(C)c1NC(=S)NC(=O)CCc1ccccc1	-27.9	-28.6	-3.1	0.614	3.3	2.4%	-2.8	8.7	i
C[C@@H]1CN([C@H](C)CO)C(=O)c2cc(NC(=O)Nc3ccc(F)cc3)ccc2O[C@H]1CN(C)C(=O)Nc1ccc2c(c1)OCO2	2.5	-2.5	-1.5	·	·	·	·	3.6	i
COCc1cc(CN2CCCC(C(=O)Nc3cccc(-n4cnnn4)c3)C2)ccc1OC (centres undefined)	6.6	12.7	2.5	·	1.2	·	4.3	1.7	i
COc1cccc(-c2ccc3c(c2)C2CC3CCN2C(=O)c2ccc(-c3ccccc3)cc2)c1 (centres undefined)	3.4	12.5	-1.6	·	-0.3	·	·	-2.4	i
Nc1nc(Cl)c(C=O)c(N2CCCCC2)n1	7.8	0.6	1.5	0.718	2.8	1.1%	·	-2.1	i
COC(=O)c1ccc(Nc2ncnc3sccc23)cc1	-4.0	-10.3	-0.7	0.662	7.1	-10.3%	0.6	5.8	i
COc1ccc(-n2nc3c(c2NC(=O)c2ccc(S(=O)(=O)N4CCOCC4)cc2)CS(=O)C3)cc1 (centres undefined)	1.4	10.0	1.7	0.7	-5.1	-1.8%	11.6	-2.8	i
CCN(CC(=O)NCc1cccs1)C(=O)CCOc1ccccc1C	4.9	3.5	2.1	0.685	-1.6	-6.2%	2.8	-0.1	i
O=C(NC(=S)N1CCN(c2ccccc2)CC1)c1ccccc1	-15.9	-7.5	-1.3	·	-1.9	-10.0%	?	-0.3	i
Cc1noc(C)c1S(=O)(=O)N(C)C[C@@H]1Oc2ccc(NS(=O)(=O)c3cccs3)cc2CC(=O)N([C@H](C)CO)C[C@@H]1C	1.7	8.2	2.3	·	·	·	·	5.7	i
CCOc1cc(/C=N/NC(=O)c2ccc(CN3CCOCC3)cc2)ccc1OC	7.4	9.8	-1.0	·	3.2	-8.9%	-0.3	0.0	i
CC1=C(C(=O)OC(C)C)C(c2cncc(-c3ccc(F)cc3)c2)C(C#N)=C(N)O1 (centres undefined)	·	·	·	0.686	-0.8	15.3%	-0.7	·	·
Cc1ccc(S(=O)(=O)NCC[C@H]2CC[C@H](NC(=O)c3ccccn3)[C@@H](CO)O2)cc1	-1.5	-4.3	-0.8	·	·	·	·	0.9	i
CCCCNC(=O)C1(C)CCCCN1C(=O)c1c(F)ccc(C)c1F (centres undefined)	2.6	7.4	-2.1	·	0.1	·	·	-3.4	+
CC(C)CCNC(=O)C1CC(c2ccccc2[N+](=O)[O-])=NO1 (centres undefined)	1.3	0.7	-0.7	0.687	-2.8	·	-3.9	-15.3	i
O=c1[nH]c(N/N=C\c2ccc(F)cc2)nc2ccccc12	14.2	10.5	0.9	·	-4.2	20.6%	4.4	-1.0	i
COc1ccc(NC(=O)c2sc(=O)n(Cc3ccccc3C#N)c2C)cc1OC	11.2	7.7	1.8	·	-5.0	·	·	-2.7	i
O=C1C(NS(=O)(=O)c2cccs2)=C(N2CCN(Cc3ccccc3)CC2)C(=O)c2ccccc21	-9.9	-17.4	7.1	0.635	-3.3	27.9%	-6.3	53.8*	i
CC(=NCC1CCCO1)c1c(O)[nH]c(=O)[nH]c1=O (centres undefined)	·	·	·	0.742	1.2	-10.2%	1.4	·	·
Cc1cc(C)c2nc(-n3nc(C)cc3N)cc(C)c2c1	23.6	18.9	0.6	0.726	1.7	-10.5%	71.6	-1.2	i
Cc1ccc(Cl)c2c1NC(=O)C2(O)CC(=O)c1ccc(Br)cc1 (centres undefined)	·	·	·	0.71	-0.4	-3.8%	-3.2	·	·
CCOC(=O)N(C)C[C@@H]1OCc2ccccc2-c2ccccc2C(=O)N([C@H](C)CO)C[C@@H]1C	3.0	4.3	1.5	·	·	·	·	-3.0	i
O=S(=O)(c1ccccc1C(F)(F)F)N1CCN(CC(O)COc2ccccc2F)CC1 (centres undefined)	-8.5	-22.8	3.7	0.669	5.2	-2.3%	0.4	-4.5	i
Cc1noc(C)c1S(=O)(=O)Nc1ccc2c(c1)C(=O)N([C@@H](C)CO)C[C@H](C)[C@H](CN(C)C(=O)Nc1ccc(C(F)(F)F)cc1)O2	0.1	-3.8	0.3	·	·	·	·	-2.6	i
Cc1[nH]c2ccccc2c1-c1csc(NC(=O)CSCCO)n1	-4.2	-13.4	-2.3	0.711	0.5	-1.6%	99.3*	14.3	i
C[C@H]1CN([C@@H](C)CO)C(=O)CCCn2cc(nn2)CO[C@H]1CN(C)S(=O)(=O)c1ccc(F)cc1	-0.2	0.7	-2.0	·	·	·	·	-0.3	i
CCOC(=O)Cn1nc(C)cc1NC(=O)c1cc(OC)c(OC)c(OC)c1	-4.9	-0.4	0.1	0.656	3.1	·	-8.5	-1.8	i
O=C(CSc1nnc(-c2cccnc2)n1Cc1ccccc1)NCc1ccccc1	·	·	·	0.692	1.1	2.8%	5.7	·	·
COc1ccccc1NC(=O)Nc1ccccc1C#N	8.6	9.4	1.1	0.638	-0.8	·	-10.8	2.1	i
Cc1cc2cc(C)c(SCC(=O)NCc3ccco3)nc2cc1C	-32.2	-43.0	-7.1	0.662	-0.7	-72.2%	-0.3	0.3	i
O=C(C[C@@H]1C=C[C@H](NC(=O)c2ccncc2)[C@@H](CO)O1)NCCc1ccncc1	2.1	-6.7	-2.0	·	·	·	·	-0.5	i
CCOc1ccc(-n2c(SCC)nc3c(c2=O)SCC3)cc1	·	·	·	0.724	3.2	-6.7%	-3.8	·	·
C[C@@H]1CN([C@@H](C)CO)C(=O)c2cc(C#CC3(O)CCCC3)cnc2O[C@@H]1CN(C)CC1CC1	4.4	6.4	-1.5	·	·	·	·	-2.5	i
O=c1c2ccccc2ncn1CCOc1ccccc1[N+](=O)[O-]	9.4	9.2	0.5	0.682	-0.2	·	-0.8	-0.5	i
Cc1ccc(-c2nnn(CC(=O)N(c3cnc4ccccc4c3)C(C(=O)NC3CCCC3)c3ccncc3)n2)o1 (centres undefined)	6.2	11.5	3.4	0.648	3.5	4.7%	-16.8	0.2	i
COc1ccc(OCc2n[nH]c(=S)n2Cc2ccco2)cc1	-2.5	-2.1	5.5	0.664	1.8	6.2%	36.0	-6.4	·
C[C@@H]1CN([C@H](C)CO)S(=O)(=O)c2ccc(C3=CCCCC3)cc2O[C@@H]1CN(C)C(=O)C1CCCCC1	-6.2	-8.1	1.7	·	·	·	·	12.6	i
CCOc1ccccc1C=NNC(=O)c1cccc2ccccc12	6.6	13.2	-0.3	·	1.0	-1.2%	·	0.8	i
C=CCC(c1ccccc1)N(C(C)=O)c1ccco1 (centres undefined)	2.8	1.6	-2.8	0.684	-3.1	4.0%	-1.8	0.7	i
O=C(C(=O)N1CCC(CNS(=O)(=O)Cc2ccccc2)CC1)c1cc2ccccc2o1	-14.0*	-14.9*	2.7*	·	·	·	·	3.4	i
C[C@@H]1CCCCO[C@@H](CN(C)Cc2ccccc2)[C@H](C)CN([C@H](C)CO)C(=O)c2cc(NC(=O)CCC(F)(F)F)ccc2O1	3.1	0.0	-1.9	·	·	·	·	-3.7	i
O=c1cnnc(N/N=C/c2ccccn2)[nH]1	-26.1	-52.3	4.6	·	-0.8	6.5%	-4.7	·	i
